# Screening data deposited in PubChem by Broad Institute.
# Vaccinia inh = Vaccinia orthopox stage-specific inhibition. Vaccinia-infected cells, mCherry/Venus stage reporter fluorescence; active compounds read low; some inactives read as strong as hits. activity change (mCherry), % (concentration not given with the values). 89,000 compounds, 0.01% hits. AID 1053133;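 active means mCherry past -33% and 40 or more points under the early reporter, replicates agreeing; inconclusive means past -33% without that gap or agreement; tested in A549 cells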;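 further: scaled between vehicle wells and reference inhibitor wells; 23 nL library stock went into each well; one replicate is shown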
# Vaccinia inh Venus = second read-out of Vaccinia inh, no call of its own (marks repeat the call); activity change (Venus), %; measured here: Venus reporter, other viral stage;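 negative = less Venus signal; first of two replicates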
# Active calls of the source: *; ? = inconclusive; . = not tested or not shown. This is a subset, so the mix of outcomes need not match the whole.
# The line under a structure holds: Vaccinia inh, Vaccinia inh Venus
- CC=Cc1ccc2n(c1=O)C[C@@H]1[C@@H](CO)[C@H](C(=O)N[C@H](C)c3ccccc3)[C@H]2N1CC1CC1 (mixture of isomers)
→ 8, 7
- CNC(=O)C[C@@H]1CC[C@H]2[C@@H](COC[C@@H](O)CN2Cc2ccc(C(F)(F)F)cc2)O1
→ 10, 0
- COc1ccc(NC(=O)Nc2ccc3c(c2)CC(=O)N([C@@H](C)CO)C[C@H](C)[C@@H](CN(C)S(=O)(=O)c2cn(C)cn2)O3)cc1
→ 13, 11
- C[C@@H]1CN([C@H](C)CO)C(=O)Cc2cc(NC(=O)CCCN(C)C)ccc2O[C@H]1CN(C)C
→ -1, -3
- CC(C)NC(=O)N(C)C[C@H]1OCCCC[C@H](C)Oc2ccc(NC(=O)C3CCCCC3)cc2C(=O)N([C@H](C)CO)C[C@@H]1C
→ 7, 1
- CN1C(=O)c2cc(NC(=O)Nc3ccc(Cl)cc3)ccc2OC[C@H]2O[C@H](CC(=O)O)CC[C@H]21
→ 4, 7
- COc1ccc(NC(=O)N[C@H]2CC[C@H](CCn3cc(-c4ccccc4F)nn3)O[C@H]2CO)cc1
→ 2, 5
- CC=Cc1ccc2n(c1=O)C[C@H]1[C@H](CO)[C@@H](C(=O)NC3CCCC3)N(Cc3ccncc3)[C@@H]21 (mixture of isomers)
→ 19, 20
- C[C@@H]1CCCCO[C@@H](CN(C)S(=O)(=O)c2ccccc2)[C@H](C)CN([C@@H](C)CO)C(=O)c2cc(NS(=O)(=O)c3cn(C)cn3)ccc2O1
→ 0, 4
- C[C@@H]1CN([C@@H](C)CO)C(=O)c2cccc(NS(=O)(=O)c3cccs3)c2O[C@H]1CN(C)Cc1ccc(Oc2ccccc2)cc1
→ -22, -26
- Cn1cnc(S(=O)(=O)N[C@H]2C=C[C@@H](CC(=O)Nc3ccc(-c4ccccc4)cc3)O[C@H]2CO)c1
→ -7, 9
- CN1C(=O)c2cc(NC(=O)C3CCOCC3)ccc2OC[C@@H]2O[C@@H](CC(=O)NCc3ccc4c(c3)OCO4)CC[C@@H]21
→ 4, 5
- CCO[C@H]1OC(C(=O)N2CCCC2)=C[C@@H](c2ccc(Br)cc2)[C@@H]1CCCO
→ 12, 6
- COCC(=O)N1CC(=O)N2[C@@H](CO)[C@@H](c3ccc(C#Cc4cccnc4)cc3)[C@@H]2C1
→ 0, -1
- C[C@@H]1CN([C@@H](C)CO)C(=O)Cc2cc(NS(=O)(=O)c3ccc(F)cc3)ccc2O[C@@H]1CN(C)Cc1ccc(Oc2ccccc2)cc1
→ ?, .
- COc1cccc(NC(=O)N2CC3(C2)[C@@H](c2ccccc2)[C@@H](CO)N3C(=O)C2CCCC2)c1
→ -9, -1
- N#Cc1ccc(-c2ccc3c(c2)[C@@H]2[C@@H](CCN2Cc2ccc4c(c2)OCO4)[C@@H](CO)N3)cc1
→ -29, -5
- C[C@@H]1CN([C@@H](C)CO)C(=O)c2cc(C#CCN(C)C)cnc2O[C@H]1CN(C)C(=O)Cc1cccnc1
→ 16, 1
- COc1ccc(NC(=O)Nc2cccc3c2O[C@H](CN(C)Cc2ccccc2)[C@@H](C)CN([C@H](C)CO)C3=O)cc1
→ 7, 4
- CCCNC(=O)Nc1ccc2c(c1)OC[C@H](C)N(Cc1cncnc1)C[C@@H](C)[C@H](OC)CN(C)C2=O
→ 14, 21
- C[C@@H]1CN([C@H](C)CO)C(=O)Cc2cc(NC(=O)Nc3ccc4c(c3)OCO4)ccc2O[C@H]1CN(C)Cc1ccc(C(=O)O)cc1
→ 19, 18
- COc1cccc(S(=O)(=O)N2C[C@@H]3N[C@H](C2)C3c2ccc(-c3ccccc3C)cc2)c1 (stereo partly drawn)
→ ?, 10
- CCCNC(=O)C[C@@H]1CC[C@H]2[C@@H](COC[C@@H](O)CN2C(=O)CC)O1
→ 12, 11
- CN1CCN(C(=O)C[C@H]2C[C@H]3c4cc(NC(=O)Nc5ccc(C(F)(F)F)cc5)ccc4O[C@H]3[C@H](CO)O2)CC1
→ -20, -18
- Cc1noc(C)c1NC(=O)N(C)C[C@@H]1Oc2cc(C#CCC3CCCC3)ccc2S(=O)(=O)N([C@H](C)CO)C[C@@H]1C
→ ?, .
- COCC(=O)N1CC2(C1)CN(C(=O)NC1CCCC1)[C@H](CO)c1c2c2ccc(OC)cc2n1C
→ -5, 0
- C[C@@H]1CCCCO[C@@H](CN(C)S(=O)(=O)c2ccccc2)[C@H](C)CN([C@@H](C)CO)C(=O)c2cc(N(C)C)ccc2O1
→ -31, -24
- CCNC(=O)C[C@H]1CC[C@@H]2[C@H](COC[C@@H](O)CN2C(=O)C2CCOCC2)O1
→ 6, 20
- C[C@@H]1CN([C@@H](C)CO)C(=O)c2cc(NC(=O)CCN3CCOCC3)ccc2O[C@@H]1CN(C)Cc1ccc(-c2ccccc2)cc1
→ ?, .
- Cc1noc(C)c1S(=O)(=O)N(C)C[C@@H]1Oc2ccc(NC(=O)Nc3ccc(F)cc3)cc2CC(=O)N([C@H](C)CO)C[C@@H]1C
→ -5, 2
- CC(C)NC(=O)N1C[C@H]2[C@@H](c3ccccc31)[C@@H](CO)N2C(=O)c1ccccc1
→ 5, 9
- COc1ccc(NC(=O)N[C@H]2CC[C@H](CCNC(=O)c3ccccc3F)O[C@H]2CO)cc1
→ 7, 9
- C[C@@H]1CCCCO[C@H](CN(C)C(=O)NC2CCCCC2)[C@H](C)CN([C@H](C)CO)C(=O)c2cc(NS(=O)(=O)c3cccs3)ccc2O1
→ -33, -28
- CCN1[C@@H]2c3ccc(-c4ccccc4OC)c(=O)n3C[C@H]1[C@H](CO)[C@H]2C(=O)N[C@@H](C)c1ccccc1
→ 13, 5
- O=C(C[C@@H]1CC[C@H]2[C@@H](COC[C@H](O)CN2S(=O)(=O)c2ccc(Cl)cc2)O1)NCCN1CCCC1
→ 0, 3
- O=C(C[C@@H]1C[C@H]2c3cc(NC(=O)Nc4ccccc4)ccc3O[C@H]2[C@@H](CO)O1)NCc1ccccn1
→ 12, 2
- C[C@@H]1CN([C@H](C)CO)C(=O)Cc2cc(NC(=O)C3CCCCC3)ccc2O[C@@H]1CN(C)CC1CC1
→ 2, 13
- CN1C(=O)c2cc(NC(=O)c3cnccn3)ccc2OC[C@@H]2O[C@H](CC(=O)NCC3CCCCC3)CC[C@H]21
→ 0, 22
- O=C(C1CCOCC1)N1CC(=O)N2[C@H](C1)[C@H](c1ccc(C#CC3CCCCC3)cc1)[C@@H]2CO
→ -27, -31
- CO[C@@H](CN(C)C(=O)Nc1ccc(F)cc1)[C@H](C)CN(Cc1ccccc1Cl)[C@H](C)CO
→ -12, -10
- C[C@@H]1CN([C@H](C)CO)C(=O)c2cc(NC(=O)CCCN(C)C)ccc2O[C@@H]1CN(C)C
→ 17, 13
- COc1ccc(NC(=O)Nc2ccc3c(c2)C(=O)N([C@@H](C)CO)C[C@@H](C)[C@@H](CN(C)C(=O)Nc2cccc4ccccc24)OCCCC[C@@H](C)O3)cc1
→ 30, 19
- CCC(=O)N1C[C@@H](C)[C@H](OC)CN(C)C(=O)c2cc(NS(C)(=O)=O)ccc2OC[C@H]1C
→ 11, 9
- COc1ccc2c3c([nH]c2c1)[C@@H](CO)N(C(C)=O)CC31CCN(C(=O)Nc2ccc(F)cc2F)CC1
→ -12, -5
- CO[C@@H]1CN(C)C(=O)c2cc(NC(=O)C3CC3)ccc2OC[C@H](C)N(C(=O)c2ccccc2F)C[C@H]1C
→ 9, 6
- COc1ccccc1NC(=O)N1CCCCN2[C@H](CO)[C@H](c3ccc(C#Cc4ccccc4)cc3)[C@@H]2C1
→ -20, -22
- CC(=O)N[C@H]1CC[C@@H](CC(=O)NCc2ccc(Cl)cc2)O[C@H]1CO
→ 14, 9
- COc1ccc(CN(C)C[C@@H]2Oc3ccc(NC(=O)CCN4CCOCC4)cc3CC(=O)N([C@H](C)CO)C[C@H]2C)cc1
→ 11, 3
- C[C@H](CO)N1C[C@H](C)[C@@H](CN(C)C(=O)Nc2ccc(C(F)(F)F)cc2)Oc2c(NS(=O)(=O)c3ccc(F)cc3)cccc2C1=O
→ -10, -1
- COc1cccc(NC(=O)N2C[C@H](O)COC[C@H]3O[C@@H](CC(=O)NC4CCCC4)CC[C@@H]32)c1
→ 13, 2

# 10 structures from above, sorted by length of the SMILES, ascending.
# The line under a structure holds: Vaccinia inh, Vaccinia inh Venus
- CC(=O)N[C@H]1CC[C@@H](CC(=O)NCc2ccc(Cl)cc2)O[C@H]1CO
→ 14, 9
- C[C@@H]1CN([C@H](C)CO)C(=O)c2cc(NC(=O)CCCN(C)C)ccc2O[C@@H]1CN(C)C
→ 17, 13
- CCC(=O)N1C[C@@H](C)[C@H](OC)CN(C)C(=O)c2cc(NS(C)(=O)=O)ccc2OC[C@H]1C
→ 11, 9
- O=C(C1CCOCC1)N1CC(=O)N2[C@H](C1)[C@H](c1ccc(C#CC3CCCCC3)cc1)[C@@H]2CO
→ -27, -31
- COc1ccc2c3c([nH]c2c1)[C@@H](CO)N(C(C)=O)CC31CCN(C(=O)Nc2ccc(F)cc2F)CC1
→ -12, -5
- CN1C(=O)c2cc(NC(=O)c3cnccn3)ccc2OC[C@@H]2O[C@H](CC(=O)NCC3CCCCC3)CC[C@H]21
→ 0, 22
- CO[C@@H]1CN(C)C(=O)c2cc(NC(=O)C3CC3)ccc2OC[C@H](C)N(C(=O)c2ccccc2F)C[C@H]1C
→ 9, 6
- COc1ccc(CN(C)C[C@@H]2Oc3ccc(NC(=O)CCN4CCOCC4)cc3CC(=O)N([C@H](C)CO)C[C@H]2C)cc1
→ 11, 3
- C[C@H](CO)N1C[C@H](C)[C@@H](CN(C)C(=O)Nc2ccc(C(F)(F)F)cc2)Oc2c(NS(=O)(=O)c3ccc(F)cc3)cccc2C1=O
→ -10, -1
- COc1ccc(NC(=O)Nc2ccc3c(c2)C(=O)N([C@@H](C)CO)C[C@@H](C)[C@@H](CN(C)C(=O)Nc2cccc4ccccc24)OCCCC[C@@H](C)O3)cc1
→ 30, 19

# The list goes on.
structure,Vaccinia inh,Vaccinia inh Venus
O=C(C[C@H]1CC[C@H](NC(=O)Nc2cc(F)ccc2F)[C@@H](CO)O1)NCCCN1CCOCC1,3,-3
C[C@@H]1CN([C@@H](C)CO)C(=O)c2cc(NC(=O)NC3CCCCC3)ccc2O[C@H]1CN(C)C(=O)Nc1cccc2ccccc12,8,10
C[C@@H]1CN([C@H](C)CO)C(=O)c2cc(NS(=O)(=O)c3ccc(F)cc3)ccc2O[C@@H](C)CCCCO[C@@H]1CN(C)Cc1ccccc1,?,.
COc1ccc(NC(=O)N(C)C[C@H]2Oc3ccc(NS(=O)(=O)c4ccc(F)cc4)cc3C(=O)N([C@H](C)CO)C[C@H]2C)cc1,23,11
C[C@@H]1CN([C@@H](C)CO)C(=O)c2cc(NS(=O)(=O)c3ccccc3)ccc2O[C@@H]1CN(C)C(=O)Nc1ccc(F)cc1,9,-4
C[C@@H]1CN([C@H](C)CO)C(=O)c2cccc(NC(=O)c3nc4ccccc4s3)c2O[C@H]1CN(C)Cc1ccc(Oc2ccccc2)cc1,-1,-9
C[C@H](CO)N1C[C@H](C)[C@@H](CN(C)Cc2ccc(Cl)c(Cl)c2)Oc2ccc(NC(=O)CCN3CCOCC3)cc2C1=O,2,1
CN(C)C(=O)c1ccc(-c2ccccc2[C@@H]2[C@@H](C#N)N(C(=O)C3CC3)[C@H]2CO)cc1,7,6
Cc1noc(C)c1NC(=O)Nc1cccc2c1O[C@H](CN(C)Cc1ccncc1)[C@@H](C)CN([C@@H](C)CO)C2=O,21,6
CCC(=O)N1[C@H](C(=O)NCCCN(C)C)[C@@H](CO)[C@@H]2Cn3c(ccc(-c4ccccc4F)c3=O)[C@@H]21,6,3
C[C@H](CO)N1C[C@H](C)[C@@H](CN(C)CC2CC2)Oc2ccc(NC(=O)CCC(F)(F)F)cc2CC1=O,11,5
N#Cc1ccc(-c2ccc3c(c2)[C@@H]2[C@@H](CCN2C(=O)CN2CCOCC2)[C@@H](CO)N3)cc1,-10,-7
CC(=O)N(C)C[C@@H]1Oc2cc(-c3cccc(C#N)c3)ccc2S(=O)(=O)N([C@H](C)CO)C[C@H]1C,12,7
O=C(Nc1cc(F)ccc1F)N[C@H]1CC[C@H](CCNC(=O)c2cnccn2)O[C@@H]1CO,0,-1
COc1ccc(NC(=O)Nc2ccc3c(c2)C(=O)N([C@@H](C)CO)C[C@H](C)[C@H](CN(C)C(=O)C2CCCCC2)OCCCC[C@@H](C)O3)cc1,20,7
Cc1ccc(S(=O)(=O)Nc2ccc3c(c2)C(=O)N([C@H](C)CO)C[C@@H](C)[C@@H](CN(C)Cc2ccncc2)O3)cc1,-6,-7
C[C@H]1CN([C@@H](C)CO)C(=O)c2cc(C#Cc3ccccc3F)cnc2O[C@H]1CN(C)C(=O)Cc1cccnc1,-3,-6
N#C[C@H]1[C@@H](c2ccc(C3=CCCCC3)cc2)[C@@H](CO)N1C(=O)Cc1ccncc1,4,9
C[C@@H]1CN([C@H](C)CO)C(=O)c2cccc(NC(=O)Nc3ccc4c(c3)OCO4)c2O[C@@H]1CN(C)Cc1ccc(C(F)(F)F)cc1,-18,-11
Cc1noc(C)c1NC(=O)Nc1cccc2c1O[C@@H](CN(C)Cc1ccc(Cl)c(Cl)c1)[C@H](C)CN([C@@H](C)CO)C2=O,-29,-25
COCCNC(=O)[C@H]1[C@H](CO)[C@H]2Cn3c(ccc(-c4ccc(F)cc4)c3=O)[C@@H]1N2C,1,4
CC(C)NC(=O)Nc1cccc2c1O[C@H](CN(C)Cc1ccncc1)[C@H](C)CN([C@H](C)CO)C2=O,0,4
C[C@H](CO)N1C[C@H](C)[C@@H](CN(C)C(=O)Nc2ccc(C(F)(F)F)cc2)Oc2c(NC(=O)Nc3ccc4c(c3)OCO4)cccc2C1=O,-2,-8
C[C@@H]1CCCCO[C@@H](CN(C)S(C)(=O)=O)[C@@H](C)CN([C@H](C)CO)C(=O)c2cc(NS(=O)(=O)c3ccc(Cl)cc3)ccc2O1,31,15
